UUG fidelity: alters start codon recognition fidelity in yeast. S. cerevisiae UUG-firefly luciferase reporter, luminescence/redox ratio. activity score, % at 18.7 µM. actives 0.13% (n = 350,000). AID 602363;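 active = replicate mean at a twofold rise or more, about +100% in these data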;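 note: firefly luciferase made from a UUG start codon reports start codon fidelity; reporter light over untreated wells divided by growth signal over untreated wells; some hits fall short of that in this replicate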
CSC inhib: blocks cancer stem cells | cancer stem cell-like cells viability, luminescence | inhibition, % at 7.5 µM | actives 1.1% (n = 300,000) | AID 2717;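 active = mean at 75% or more and at least half the replicates too; inconclusive = mean and replicates disagree; tested in HMLE shEcad cells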;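 note: 0% = median of negative and 100% = median of positive control wells; the first replicate is given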
HIV Env fusion: HIV envelope-mediated fusion inhibition. AID 651610. HeLa-JRFL Env/CEM21 cell fusion, luciferase. actives 1.1% (n = 360,000). inhibition, % at 12.3 µM;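 active = mean replicate inhibition score of at least 50 and every replicate individually at or above 50; inconclusive = only one of the two criteria met; inactive = mean below 50 and not all replicates reaching 50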;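 note: 0% = plate neutral controls and 100% = maraviroc near 300 nM; one replicate is shown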
Rce1 inh: yeast Ras-converting enzyme inhibition | Q03530 | yeast membranes, quenched prenylated peptide cleavage fluorescence | calls only | actives 0.27% (n = 290,000);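 active = fall in fluorescence gain of 50% or more versus controls, with final raw signal at or below 3038400; inconclusive = same 50% fall but final raw signal above 3038400; inactive = fall in fluorescence gain under 50%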;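 note: plate controls were neutral control wells for no effect and wells lacking membranes for full effect; tested at 10 µM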
Target sequence (Q03530 whole entry, looked up): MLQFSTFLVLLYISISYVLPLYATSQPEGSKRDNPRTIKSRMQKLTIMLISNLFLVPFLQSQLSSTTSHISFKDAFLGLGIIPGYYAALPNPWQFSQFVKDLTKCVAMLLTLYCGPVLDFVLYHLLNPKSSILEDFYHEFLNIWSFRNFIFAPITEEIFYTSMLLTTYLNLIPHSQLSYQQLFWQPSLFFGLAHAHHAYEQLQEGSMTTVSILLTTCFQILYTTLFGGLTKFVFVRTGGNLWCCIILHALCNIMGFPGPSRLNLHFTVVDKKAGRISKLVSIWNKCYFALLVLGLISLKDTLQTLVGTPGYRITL
MT1-MMP act inh: inhibitors of human MT1-MMP activation; P50281; HT1080 RFP-PRO-GFP cells, GFP/RFP ratio fluorescence, overnight; percent of plate control window, DMSO zero; actives 0.061% (n = 360,000); GFP/RFP ratio change, % at 20 µM; AID 651647;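 active = GFP/RFP ratio change of at least 30% with cell ATP level not reduced by more than half and red fluorescence within 50% of control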; note: strong numbers were not always called active
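Test system: HT1080 RFP-PRO-GFP cells; Benchmarks: DMSO and RFP-L50D-GFP cell wells; Timing: cells overnight before dosing, compound overnight, 37 °C, 5% CO2; Compound: one 20 µM compound dose with 1% DMSO; Read-out: GFP/RFP fluorescence ratio.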
PABP FP inh: PABP-poly(A) binding inhibition; PABP-poly(A) RNA binding, fluorescence polarization; inhibition, % at 35 µM; actives 1% (n = 290,000); AID 2014; P11940;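 active = 50% or more with normal probe brightness, or confirmed in later tests; inconclusive = above 50% with abnormal brightness, or retests that disagree; inactive = below 50% or failed in later tests; about a fifth of its hits are not listed in these tables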;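 note: calls also rest on retests at 20 µM and on dose response follow-up; controls were probe without protein and protein plus probe with vehicle; some compounds called inactive have numbers as strong as hits; many hits fall short of the cut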
eIF4H inh: inhibitors of RNA binding by human eIF4H | AID 2012 | eIF4H fluorescence polarization binding assay | inhibition, % at 35 µM | actives 0.94% (n = 290,000);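 active = 50% or more with normal probe brightness, or confirmed in later tests; inconclusive = above 50% with abnormal brightness, or retests that disagree; inactive = below 50% or failed in later tests; about a fifth of its hits are not listed in these tables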;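 note: calls also rest on retests at 20 µM and on dose response follow-up; 0% = protein and probe with vehicle and 100% = probe without protein; strong numbers were not always called active; many hits fall short of the cut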
MT1-MMP act inh RFP: also measured in MT1-MMP act inh; calls as there; RFP signal change, %; measured here: RFP expression control read;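 0 = vehicle wells; hits needed this value within 50% of zero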
An asterisk follows results filed as active; i = inactive; ? = inconclusive; . = no result given. Rows are unselected, and some 3% of all compounds hit somewhere here.

#	mol	UUG fidelity	CSC inhib	HIV Env fusion	Rce1 inh	MT1-MMP act inh	MT1-MMP act inh RFP	PABP FP inh	eIF4H inh
1	COc1ccc(C(=O)N/N=C/c2ccc(OC)c(CN3CCc4cc(OC)c(OC)cc4C3C)c2)cc1 (stereo not drawn)	.	-3	8	i	5	4	12	-9
2	OCCNc1nc(SCc2ccccc2)nc2sc3c(c12)CCC3	-12	.	30	i	3	-10	-5	0
3	Cc1cc(N2CCOCC2)nc2ccc(NC(=S)N3CCN(Cc4ccccc4)CC3)cc12	.	15	-2	i	-2	-1	4	4
4	CSc1ccc(S(=O)(=O)NC2CC3CCC2C3)cc1 (stereo not drawn)	-7	.	-1	i	13	0	6	-12
5	CC(C)CCc1c(O)nc(SCC(C)C)[nH]c1=O	-23	-22	3	i	1	-1	-1	20
6	CC(=O)Oc1ccc(N(c2ccccc2)S(=O)(=O)c2ccc(C)cc2)cc1	-4	5	14	i	-2	-3	-10	-1
7	CCn1c(CNc2ccccc2Cl)nnc1SCC(=O)NCc1ccccc1	-21	-5	.	i	9	8	2	-11
8	CNC(=S)N(Cc1ccc(OC)cc1)Cc1cc2cccc(C)c2[nH]c1=O	.	-7	1	i	4	-3	-4	-12
9	CC(C)CNC(=O)C1(C)CCCN1C(=O)c1cccnc1 (stereo not drawn)	5	.	-12	.	-3	1	.	.
10	CCCN(C(=O)COC(=O)CSc1ccc(C(N)=O)cc1[N+](=O)[O-])C1CCS(=O)(=O)C1 (stereo not drawn)	-6	.	0	.	0	0	.	.
11	O=S(=O)(O)c1cc(O)c(N=Nc2ccc(O)cc2O)c2ccccc12	-16	.	5	.	64*	19*	.	.
12	O=C(CNC(=O)C1CCCCC1)NCc1ccco1	-13	13	8	i	0	1	9	8
13	COC(=O)Cc1ccc(NC(=S)N2CCN(c3ccc(F)cc3)CC2)cc1	-7	2	21	i	-5	-13	6	1
14	CN(C)c1ccc(-c2csc(C(C)(O)c3ccccc3)n2)cc1 (stereo not drawn)	-5	.	-1	.	-6	-24	.	.
15	CC(/C=N/Nc1nc(C)cc(=O)[nH]1)=C\c1ccccc1	-37	-2	13	i	0	1	-9	-3

Ordered by molar mass (falling): 3 of the compounds above.
#	mol	UUG fidelity	CSC inhib	HIV Env fusion	Rce1 inh	MT1-MMP act inh	MT1-MMP act inh RFP	PABP FP inh	eIF4H inh
11	O=S(=O)(O)c1cc(O)c(N=Nc2ccc(O)cc2O)c2ccccc12	-16	.	5	.	64*	19*	.	.
14	CN(C)c1ccc(-c2csc(C(C)(O)c3ccccc3)n2)cc1 (stereo not drawn)	-5	.	-1	.	-6	-24	.	.
4	CSc1ccc(S(=O)(=O)NC2CC3CCC2C3)cc1 (stereo not drawn)	-7	.	-1	i	13	0	6	-12

Additional structures.
#	mol	UUG fidelity	CSC inhib	HIV Env fusion	Rce1 inh	MT1-MMP act inh	MT1-MMP act inh RFP	PABP FP inh	eIF4H inh
16	COC(=O)c1cc(S(=O)(=O)N2CCOCC2)ccc1Sc1ccccc1N	-9	-5	-39	i	6	0	1	7
17	COc1ccccc1C1Nc2cccc3cccc(c23)N1	-13	-4	-20	i	11	11	?	?
18	O=C(CN1CCN(C(=O)CCC(=O)N2CCC(c3ccccc3)=N2)CC1)Nc1cccc(F)c1	23	.	-2	.	4	0	.	.
19	Cc1ccc(C(=O)NC(c2ccccc2)C(Cl)Cl)cc1 (stereo not drawn)	-22	2	-4	i	-8	1	-14	-1
20	CCC(=O)OCc1cc(=O)oc2ccc3ccccc3c12	-16	3	-11	i	-5	0	0	-8
21	Cn1nnnc1Sc1ncnc2scc(-c3ccc(Br)cc3)c12	15	.	-6	.	2	-11	.	.
22	c1ccc2[nH]c(-c3nc4ccccc4[nH]3)nc2c1	-9	21	-313	i	5	-5	7	5
23	COc1ccc2cc(C(=O)/C=C/c3cc(OC)c(O)c(OC)c3)ccc2c1	-24	55	-55	i	-30	-1	-13	-6
24	COc1ccc2nc(C)cc(SCC(=O)NNC(=O)COc3ccccc3)c2c1	17	-6	25	i	0	-3	-10	-4
25	CC1CCN(C2CCN(C(=O)c3ccccc3F)CC2)CC1	.	0	2	i	-3	-1	15	-3
26	CCCCN1C(=O)c2ccc(C(=O)NC3=NCCS3)cc2C1=O	3	7	.	i	2	1	-8	-4
27	CC(C)Oc1ccc(OCCSc2nc3ccccc3n2CC(=O)O)cc1	-21	-9	18	i	-2	-1	.	.
28	Cc1cc(C)n(C(=O)c2ccc(Cn3nc(C)c(Br)c3C)o2)n1	-7	-1	-15	i	2	3	-1	0
29	COc1cc(C(=O)Nc2ccccc2SCc2cc(=O)n3nc(C)sc3n2)cc(OC)c1OC	1	4	-3	i	-9	-8	-5	-25
30	CCCCn1c(N)c(N(CC(C)C)C(=O)c2cccc(S(=O)(=O)N3CC(C)OC(C)C3)c2)c(=O)[nH]c1=O (stereo not drawn)	.	-10	7	i	-2	5	.	.

More compounds.
#	mol	UUG fidelity	CSC inhib	HIV Env fusion	Rce1 inh	MT1-MMP act inh	MT1-MMP act inh RFP	PABP FP inh	eIF4H inh
31	Cc1ccc(Nc2nnc(C)c(=O)[nH]2)cc1	.	-12	-59	i	3	9	10	-4
32	COC(=O)C1C(=O)CC(C)(O)C(C(=O)OC)C1/C=C/c1ccccc1 (stereo not drawn)	8	8	.	i	2	6	-9	2
33	O=C(CCc1nnc2n(Cc3ccccc3Cl)c(=O)c3ccccc3n12)NCCCN1CCOCC1	-12	5	4	i	4	8	-2	-5
34	O=C(c1ccc(N2C(=O)C3C4c5ccccc5C(c5ccccc54)C3C2=O)cc1)N1CCOCC1 (stereo not drawn)	8	-7	1	i	-11	-3	15	2
35	Cc1ccc(C)c(N2CCN(S(=O)(=O)c3ccc4[nH]c(=O)c(=O)[nH]c4c3)CC2)c1	-5	14	-21	i	-2	2	-7	-8
36	Cc1cccc(C)c1OCC(=O)N/N=C/c1cccnc1	-4	-7	-15	i	-1	4	-8	-7
37	COc1cccc(NC(=O)C(=O)c2cn(CC(=O)N3CCCC3)c3ccccc23)c1	-6	-3	8	i	0	3	-7	-12
38	C[n+]1ccccc1/C=C/c1cc(Br)ccc1O	-12	-3	23	i	0	2	28	6
39	C(=N\N1CCN(Cc2ccccc2)CC1)/c1ccc(-c2ccccc2)cc1	-17	13	9	i	1	-9	5	6
40	S=C(NCCc1ccccc1)N/N=C/c1cccs1	-15	18	1	i	5	-1	.	.
41	N#C/C(=C/c1ccc(N2CCOCC2)o1)c1ccc(Cl)cc1	.	-1	-259	i	-246	7	12	7
42	COc1ccc(CC(=O)Nc2ccc(C(C)=O)cc2)cc1	.	11	-19	i	2	3	7	6
43	O=C(NCC(c1ccco1)N1CCN(c2ccccc2F)CC1)C(=O)NC1CC1 (stereo not drawn)	0	-4	.	i	-4	0	.	.
44	COc1ccccc1/C=C1\SC(=S)N(CCC(=O)N2CCN(C)CC2)C1=O	-18	-6	-2	i	1	3	5	1
45	COc1ccc(CN2CCN(C(C)C(=O)N(C)Cc3cccc(F)c3)CC2)cc1OC (stereo not drawn)	-8	0	12	i	0	-4	6	6

Going on with the list.
#	mol	UUG fidelity	CSC inhib	HIV Env fusion	Rce1 inh	MT1-MMP act inh	MT1-MMP act inh RFP	PABP FP inh	eIF4H inh
46	Cc1sc2ccc3sccc3c2[n+]1C	-17	-4	6	i	-4	-3	54*	7
47	CCN(CC)S(=O)(=O)c1ccc(NC(=O)COc2c(OC)cccc2OC)cc1	-15	-2	8	i	0	-1	3	5
48	O=C(Nc1ccc(Cc2ccncc2)cc1)C1CCC(N2C(=O)C3CC=CCC3C2=O)CC1 (stereo not drawn)	5	-9	.	i	-3	-5	-3	-6
49	COc1ccc(-c2csc(NC(=O)Cn3nc(C)cc3C)n2)cc1	-11	5	-17	i	2	0	-1	-19
50	CCN(CC)CCN(C(=O)c1ccc(S(=O)(=O)N(C)C2CCCCC2)cc1)c1nc2ccc(OC)cc2s1	-5	4	-6	i	-3	-4	-6	-16
51	Cc1cccc(NC(=S)NC(=O)CC2CC(C)(C)OC2=O)c1 (stereo not drawn)	.	-13	-15	i	-1	3	6	-2
52	CCOC(=O)N1CCN(C(=O)CCSCCc2ccncc2)CC1	-23	-15	.	i	2	-2	2	2
53	COc1ccc2c(c1)CCc1c(C(=O)Nc3ccn(Cc4ccc(C)cc4)n3)noc1-2	-12	7	.	i	1	-1	-3	-3
54	CN(C(=O)CSc1nc2cc([N+](=O)[O-])ccc2n1-c1ccc(F)cc1)C1CCS(=O)(=O)C1 (stereo not drawn)	.	4	2	i	3	-3	-9	-4
55	CCc1nnc(NC(=O)C2CCN(S(=O)(=O)Cc3ccccc3)CC2)s1	-13	.	-171	.	1	0	-19	8
56	COc1ccc(CNC(=O)C2CCCN(c3nn4c(=O)cc(C)nc4s3)C2)cc1 (stereo not drawn)	-16	13	-7	i	5	9	4	-15
57	COc1ccc(-c2csc(Nc3ccccc3)[n+]2Cc2ccccc2)cc1	.	23	8	i	-17	-26	13	-9
58	COc1cccc(CCNC(=O)c2cc(COc3ccc(C)c(C)c3)on2)c1OC	-11	.	-27	.	2	-2	.	.
59	COc1ccc(CCNC(=O)C(=O)NCc2ccc(C)cc2)cc1OC	-26	4	.	i	0	-4	-1	-9
60	COc1ccc(-c2coc3c(C(=O)NCc4cccc(Cl)c4)cccc23)c(C)c1	-10	.	?	.	-4	-27	.	.

The list goes on:
#	mol	UUG fidelity	CSC inhib	HIV Env fusion	Rce1 inh	MT1-MMP act inh	MT1-MMP act inh RFP	PABP FP inh	eIF4H inh
61	COc1cccc(/C=N/n2c(SC)nnc2-c2ccccc2)c1O	1	67	.	i	-82	-8	-20	-4
62	Cc1ccccc1NC(=S)N(Cc1ccccn1)Cc1ccccc1Cl	.	11	-9	i	5	6	-7	5
63	Cc1cc(C)cc(Oc2nc(C(F)(F)F)nc3ccccc23)c1	.	42	.	i	-11	-14	-15	-17
64	COCCn1c(=S)[nH]c2cc(C(=O)N(CCO)Cc3ccccc3)ccc2c1=O	-15	-27	2	i	0	1	0	4
65	O=C(Nc1ccccc1-c1ccccc1)C1CCCN(c2ncccn2)C1 (stereo not drawn)	-5	-2	4	i	3	-1	-16	-7
66	COC(=O)c1ccc(N2C(=O)CC(N(C)CCc3ccc(OC)c(OC)c3)C2=O)cc1 (stereo not drawn)	-18	-2	.	i	-1	2	-8	-5
67	Cc1ccc(CCNC(=O)C2CCCN(S(=O)(=O)c3c(C)noc3/C=C/N(C)C)C2)cc1 (stereo not drawn)	-10	-7	-2	.	-13	0	1	3
68	Cc1cnn(-c2cc(N/N=C/c3ccccc3Cl)ncn2)c1	17	16	.	i	4	2	-14	-4
69	COc1cc(-n2c(=O)c3ccccc3n(Cc3cccc(C)c3)c2=O)cc(OC)c1OC	-2	9	-6	i	-4	-1	-2	-2
70	O=C(Cc1ccccc1)NC(c1ccco1)c1c(O)ccc2ccccc12 (stereo not drawn)	.	10	-6	i	-1	1	6	2
71	COc1ccc(S(=O)(=O)Nc2c(C)cc(C)cc2C)c2cccnc12	-12	4	0	i	2	5	0	-4
